Bioassay records (PubChem)
GLA inh pH 4.5: inhibitors of human alpha-galactosidase A at pH 4.5; 230,000 tested, under 10 active; activity change, negative = inhibition, % at 105 µM; P06280; AID 1467; purified enzyme, 4-MU-alpha-Gal fluorescence, pH 4.5; inconclusive = small, poorly fitted or top-dose-only inhibition, or a rising curve; inactive = flat fitted curve, though single readings scatter; no compound was filed as active;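 note: 0% = full activity with enzyme and -100% = basal without enzyme; dose as in the result columns while the protocol names 77 µM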
miR-21 reporter: raises the signal of a miR-21 reporter; HeLa miR-21 FLuc reporter, luciferase, 48 h; Potency, µM (top dose mostly 38.3 µM), for inactives: top-dose reporter change, positive = more light; 340,000 tested, under 10 active; active = well fitted rising curve with a large enough effect; inconclusive = small, poorly fitted or top-dose-only effect; inactive = no such curve, though single readings can be large or run the other way;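 note: % of control where 0% means no effect; miR-21 action dims this reporter so a rising signal means less miR-21 action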
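Luminescence from a firefly luciferase reporter carrying a miR-21 binding site downstream, stably expressed under a CMV promoter in HeLa cells that make miR-21 endogenously, reports miRNA modulation after 48 h compound exposure up to approximately 40uM final.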
Rango complex inh: prevents formation of the Rango-importin beta complex; Rango CFP/YFP FRET sensor + importin beta, 45 min; Potency, µM (doses to about 92.2 µM), for the others: at the top dose inhibition of complex formation; 340,000 compounds, 0.031% hits; AID 540263; active = rising FRET ratio curve, often small or poorly fitted; inconclusive = mostly compound fluorescence or quenching in the first reads; inactive = flat curves in all reads;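 note: potency is the fitted concentration of half-maximal effect; 0% = DMSO wells and 100% = buffer wells lacking importin beta; nearly all actives have a fitted effect of over 15% in size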
Target sequence (Q14974 whole entry, looked up): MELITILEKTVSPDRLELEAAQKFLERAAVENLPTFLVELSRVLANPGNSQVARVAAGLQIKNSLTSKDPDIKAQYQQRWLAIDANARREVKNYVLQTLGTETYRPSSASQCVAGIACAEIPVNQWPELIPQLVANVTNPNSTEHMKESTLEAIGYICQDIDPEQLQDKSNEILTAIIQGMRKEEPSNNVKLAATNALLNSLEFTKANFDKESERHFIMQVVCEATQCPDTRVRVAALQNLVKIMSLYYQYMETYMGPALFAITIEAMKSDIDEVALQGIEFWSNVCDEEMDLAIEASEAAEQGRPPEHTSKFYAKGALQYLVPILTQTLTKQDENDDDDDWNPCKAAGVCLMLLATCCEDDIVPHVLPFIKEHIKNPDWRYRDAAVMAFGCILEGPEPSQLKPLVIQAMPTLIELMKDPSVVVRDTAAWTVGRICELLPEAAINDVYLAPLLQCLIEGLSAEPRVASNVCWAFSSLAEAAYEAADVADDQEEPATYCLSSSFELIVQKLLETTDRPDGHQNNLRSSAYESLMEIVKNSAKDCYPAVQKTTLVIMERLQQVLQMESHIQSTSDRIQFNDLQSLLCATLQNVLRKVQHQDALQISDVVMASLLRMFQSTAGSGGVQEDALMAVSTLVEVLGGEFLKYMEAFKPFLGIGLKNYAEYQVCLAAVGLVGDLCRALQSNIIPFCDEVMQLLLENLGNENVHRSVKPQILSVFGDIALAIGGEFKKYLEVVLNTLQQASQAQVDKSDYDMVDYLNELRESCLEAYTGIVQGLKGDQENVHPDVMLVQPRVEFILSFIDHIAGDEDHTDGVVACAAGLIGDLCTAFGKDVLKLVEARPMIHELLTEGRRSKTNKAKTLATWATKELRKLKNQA
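FRET biosensor Rango (snurportin 1 IBB between N-terminal EYFP and C-terminal Cerulean), 50 nM in PBS/1 mM DTT/0.02% Tween-20/0.1% BSA, preincubated 5 min RT with compound; 0.125 microM importin beta added, 45 min RT, CFP/YFP FRET ratio read.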
Rango release inh: prevents RanGTP from dissociating the Rango-importin beta complex; Biochemical FRET Rango-importin beta, RanGTP-induced dissociation; 340,000 compounds, 0.071% hits; AID 540253; Potency, µM (titrated, usually from 46.1 µM), for inactives: top-dose activity change, negative = inhibition; active means falling FRET ratio curve, often poorly fitted, with flat reads before Ran was added; inconclusive means other falling curves, or compound fluorescence or quenching; inactive means flat or rising ratio curve;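 note: potency is the fitted concentration of half-maximal effect; % of control where 0% means no effect; nearly all actives have a fitted effect of over 45% in size; -100% = wells without RanGTP and RCC1; the record marks most hits as doubtful in a second field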
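Compounds preincubate 5 min with complex of recombinant Rango and importin beta in PBS with 1 mM DTT. Ran (0.6 uM) loaded with 2 mM GTP plus 0.2 uM RCC1 starts dissociation; FRET is recorded 45 min later.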
* marks the source's active call; other numbers are inactive results; ? = inconclusive; . = no result given; & = joins results of further samples. Not all compounds are listed. The share of hits here may be higher or lower than overall.

The opening four records, to show the layout:
SMILES	GLA inh pH 4.5	miR-21 reporter	Rango complex inh	Rango release inh
CCCn1nc2ccccc2c1P(=N)(N1CCOCC1)N1CCOCC1	-3	-1%	6.5%	7%
COc1ccc(CNC(=S)Nc2cc(C)cc(C)c2)cc1	3	-1%	-0.3%	-2%
COc1ccc(N2CCN(c3cc(C)c4ccc(C)cc4n3)CC2)cc1	-2	-9%	1.1%	2%
COc1ccc(CCN2C(=O)CN=C2Nc2ccc(F)cc2)cc1OC	2	-3%	0.4%	-11%

This part in full, from the first entry:
SMILES	GLA inh pH 4.5	miR-21 reporter	Rango complex inh	Rango release inh
CCCn1nc2ccccc2c1P(=N)(N1CCOCC1)N1CCOCC1	-3	-1%	6.5%	7%
COc1ccc(CNC(=S)Nc2cc(C)cc(C)c2)cc1	3	-1%	-0.3%	-2%
COc1ccc(N2CCN(c3cc(C)c4ccc(C)cc4n3)CC2)cc1	-2	-9%	1.1%	2%
COc1ccc(CCN2C(=O)CN=C2Nc2ccc(F)cc2)cc1OC	2	-3%	0.4%	-11%
Cc1cc(C)nc(-n2ncc3c2CC(c2cccc(Cl)c2)CC3=O)n1 (centres undefined)	2	17%	-1.6%	-8%
N#Cc1c(-n2cccc2/C=N/O)sc2c1CCCC2	-4	0%	1.6%	-9%
O=c1oc2ccc3ccccc3c2cc1-c1nnc(-c2cccs2)o1	11	-24%	?	?
O=C(NC1CC1)C1=C[C@H](c2ccc(C(F)(F)F)cc2)C[C@H](OCCCCO)O1	.	.	-2.9%	5%
Cc1ccc(-c2nc(CC(=O)Nc3cccc(S(=O)(=O)NC4=NCCC4)c3)cs2)cc1	.	.	-2.8%	15%
CCCCNc1nc(N(C)c2ccccc2)nc(-n2ccnc2)n1	-11	21%	-5.0%	-5%
O=C(NC1CCCc2ccccc21)c1ccccc1OC(F)F (centres undefined)	.	-3%	-0.2%	-21%
NC(=O)c1ccc(NC(=O)CCCc2nc(-c3ccccc3Cl)no2)cc1	12	-8%	0.0%	5%
CCCCOc1ccccc1C(=O)N(Cc1ccc(C)o1)C1CCS(=O)(=O)C1 (centres undefined)	.	4%&9%	5.1%	0%
COc1ccccc1NC(=O)CSc1nnc(Cc2cccn2C)n1-c1ccc(F)cc1	1	0%	-3.4%	-8%
CCOc1ccc(NC(=O)C(=O)NCc2ccncc2)cc1	4	1%	-0.5%	0%
Cc1ccc(S(=O)(=O)NCC(=O)N2CCCC2C(=O)O)cc1 (centres undefined)	.	0%	5.5%	10%
CC12CCC(C(=O)N3CCc4ccccc43)(CC1=O)C2(C)C (centres undefined)	0	5%	-2.0%	1%
CC(=O)Nc1cccc(N=NN2CCOCC2)c1	7	-15%	-2.6%	-1%
CCc1nc2ccc(C(=O)N3CCN(c4ccccc4F)CC3)cc2nc1CC	.	0%&-6%	2.7%	-3%
COc1cccc(/C=C(/C(=O)OCC(=O)NCC2CCCO2)c2ccccc2)c1 (centres undefined)	7	1%	1.1%	9%
O=C1CCC(c2ccccc2)(c2ccccc2)CC1	3	-1%	-3.2%	-13%
O=C(Oc1ccccc1)c1cccc2cccc(C(=O)Oc3ccccc3)c12	-9	3%	1.1%	20%
O=C(N/N=C/c1cc([N+](=O)[O-])c(N2CCOCC2)cc1N1CCOCC1)c1cccnc1	-7	-10%	5.6%	0%
Cc1ccccc1-c1nc(CS(=O)CC(=O)NCc2ccc3c(c2)OCO3)c(C)o1 (centres undefined)	.	-7%	-1.9%	-18%
COc1cccc(-n2c(=S)[nH]c3c(oc4ccccc43)c2=O)c1	3	-37%	4.6%	15%

Exported with values ahead of the structure: five of the compounds above
GLA inh pH 4.5,miR-21 reporter,Rango complex inh,Rango release inh,canonical_smiles
-2,-9%,1.1%,2%,COc1ccc(N2CCN(c3cc(C)c4ccc(C)cc4n3)CC2)cc1
2,-3%,0.4%,-11%,COc1ccc(CCN2C(=O)CN=C2Nc2ccc(F)cc2)cc1OC
2,17%,-1.6%,-8%,Cc1cc(C)nc(-n2ncc3c2CC(c2cccc(Cl)c2)CC3=O)n1 (centres undefined)
-4,0%,1.6%,-9%,N#Cc1c(-n2cccc2/C=N/O)sc2c1CCCC2
11,-24%,?,?,O=c1oc2ccc3ccccc3c2cc1-c1nnc(-c2cccs2)o1

(further entries)
SMILES	GLA inh pH 4.5	miR-21 reporter	Rango complex inh	Rango release inh
Cc1ccccc1C(=O)NC1CCN(CC(=O)Nc2ccc(N(C)C)cc2)CC1	.	6%	-1.8%	-2%
O=C(Nc1cccc(F)c1)Nc1ccc2c(c1)C(=O)OC2	3	-12%	-4.0%	-7%
COc1ccc(C2=NN(C(=O)CN3CCOCC3)C(c3nc4ccccc4[nH]3)C2)cc1 (centres undefined)	-3	-75%	4.0%	-12%
CN(C)C(=O)CSc1ncccc1-c1nc2ccccc2[nH]1	.	-4%	-2.4%	-6%
Cn1c(CNC(=O)c2ccco2)nnc1SCC(=O)Nc1cccc(Br)c1	0	7%	2.1%	?
CNC(=S)N/N=C(\C)c1ccc2c(c1)OCO2	-15	-12%	?	-4%
O=C(O)C1Oc2ccccc2C1c1ccccc1 (centres undefined)	.	.	2.6%	3%
COc1ccc(N(Cc2cc3cc(OC)ccc3[nH]c2=O)C(=O)C2CCCO2)cc1 (centres undefined)	0	-4%	0.6%	-10%
Cc1ccc(-c2nn(CC(=O)Nc3ccc4c(c3)nc3n4CCOC3)c(=O)c3ccccc23)cc1	2	-27%	-0.8%	-5%
COc1ccc(/C=C(\NC(=O)c2ccccc2)C(=O)OCC2CCCN3CCCCC23)cc1OC (centres undefined)	-1	0%	-0.1%	-3%
O=C(COC(=O)c1cc([N+](=O)[O-])ccc1N1CCOCC1)Nc1ccc(Cl)cn1	.	15%	-1.5%	-7%
O=Cc1ccc(C(=O)OCC(=O)NCc2ccco2)cc1	.	.	1.7%	-9%
COc1cc(NC(=O)CC2NCCNC2=O)cc(OC)c1 (centres undefined)	0	-1%	5.5%	-17%
C=CCOc1ccc(CNc2ccc3[nH]c(=O)[nH]c3c2)cc1OCC	5	0%	?	-20%
Cc1cccc2sc(N(CCCN(C)C)C(=O)c3ccco3)nc12	?	-14%	-0.2%	2%
CC(Nc1cccc2ccccc12)C(=O)N/N=C/c1ccc([N+](=O)[O-])cc1 (centres undefined)	-24	-7%	0.3%	3%
CC(=O)c1ccc(NC(=S)NCCc2ccccn2)cc1	4	-53%	-0.6%	-1%
CCOc1ccccc1CNC(=O)C1CCN(c2nn3c(=O)cc(C)nc3s2)CC1	.	-7%	-2.7%	-13%
NC(=O)c1ccc(NC(=O)COC(=O)c2ccc3c(c2)OCO3)cc1	.	.	-4.9%	2%
CCc1ccc(NC(=O)c2ccc(S(=O)(=O)NCc3cccnc3)cc2)cc1	.	-12%	2.1%	-7%
Cc1ccccc1CSc1nnc2ccc(-c3ccncc3)nn12	4	-11%	0.5%	2%
CCOC(=O)Cn1c(=O)c2c(nc(N3CCCCC3)n2Cc2ccccc2)n(C)c1=O	-4	12%	-4.7%	15%
Cc1ccc(Nc2nnc(SCn3nnc4ccccc4c3=O)s2)cc1	8	-25%	0.1%	-3%
Clc1cccc(N=NN2CCOCC2)c1Cl	-6	-3%	-1.1%	-1%
Cc1ccc(C)c(S(=O)(=O)N2CCN(C(=O)CCNS(=O)(=O)c3ccccc3)CC2)c1	.	5%	-2.9%	1%

Some of the entries so far, field by field:
CCOC(=O)Cn1c(=O)c2c(nc(N3CCCCC3)n2Cc2ccccc2)n(C)c1=O
  GLA inh pH 4.5: -4; miR-21 reporter: 12%; Rango complex inh: -4.7%; Rango release inh: 15%

Cc1ccc(Nc2nnc(SCn3nnc4ccccc4c3=O)s2)cc1
  GLA inh pH 4.5: 8; miR-21 reporter: -25%; Rango complex inh: 0.1%; Rango release inh: -3%

Rewritten as comma-separated lines: part of the list above.
structure,GLA inh pH 4.5,miR-21 reporter,Rango complex inh,Rango release inh
Cc1ccc(S(=O)(=O)NCC(=O)N2CCCC2C(=O)O)cc1 (centres undefined),.,0%,5.5%,10%
CC12CCC(C(=O)N3CCc4ccccc43)(CC1=O)C2(C)C (centres undefined),0,5%,-2.0%,1%
CC(=O)Nc1cccc(N=NN2CCOCC2)c1,7,-15%,-2.6%,-1%

Other records:
SMILES	GLA inh pH 4.5	miR-21 reporter	Rango complex inh	Rango release inh
O[C@@H]1CN(C2CCCCC2)CC[C@H]1N1CCN(CCc2ccccc2)CC1	.	0%	-1.0%	-18%
Cc1ccccc1NS(=O)(=O)c1cccc(C(=O)Nc2cccc(C(=O)O)c2)c1	.	4%	-0.5%	-3%
O=C(NCc1ccc2c(c1)OCO2)c1ccc2c(c1)OCO2	-2	-36%	-1.5%	-3%
Cc1ccc(C)c(NS(=O)(=O)c2cc(C(=O)N3CCc4ccccc4C3)ccc2Cl)c1	2	12%	0.2%	13%
COc1ccc(C(C)=O)cc1COC(=O)c1cnc(Cl)c(Cl)c1	-4	-1%	-0.9%	3%
COc1cc(C=O)ccc1Oc1cnccn1	-25	-1%	-3.0%	9%
O=C(O)c1cc(S(=O)(=O)NCCCN2CCCC2=O)ccc1Cl	.	.	6.3%	-17%
Cc1ccc(/C=C/C(=O)Nc2ccc(S(=O)(=O)Nc3cc(C)nc(C)n3)cc2)cc1	.	-9%	-2.1%	-6%
CC12CCC(=O)N1C(C(=O)NNC(=O)c1ccc(F)cc1)CS2 (centres undefined)	.	.	1.7%	7%
Cc1ccc(C)c(CN2C(=O)CSc3ccc(C(=O)NCCN4CCOCC4)cc32)c1	.	-1%	-2.2%	16%
O=C(Nc1ccc(NC(=O)c2ccccc2F)cc1)c1ccccc1F	.	-12%	5.4%	1%
CCOP(=O)(OCC)C(NC(=O)Nc1ccc(Cl)cc1)C(=O)N(CC)CC (centres undefined)	2	-6%	-0.2%	12%
CCn1c(SCC(=O)NC2CC2)nnc1-c1ccncc1	.	-1%	0.0%	-6%
Cc1c(C(=O)OCC(=O)NCC2CCCO2)oc2ccccc12 (centres undefined)	.	.	-0.7%	10%
CCOC(=O)c1c(NC(=O)COC(=O)c2ccc(O)cc2)sc(C(=O)N(C)C)c1C	-5	-4%	-3.9%	-7%
Cc1cccc(NC(=O)N2C3CCCC2CC(NC(=O)C(C)(C)C)C3)c1 (centres undefined)	.	-1%	-2.3%	-12%
COc1ccccc1-n1cnnc1SCC(=O)NC1CCCCC1	.	.	?	14%
COc1ccc(CN2CCC(Oc3ccc(C(=O)NCc4ccccn4)cc3)CC2)c(F)c1	.	7%	-4.6%	1%
Cn1cnnc1SCC(=O)c1ccc(O)c(O)c1	2	-2%	?	-3%
Nc1cc(S(=O)(=O)N2CCCCC2)ccc1N1CCOCC1	-2	-3%	3.5%	1%
CC(Cc1cccs1)NC(=O)Nc1ccc(F)cc1 (centres undefined)	6	-40%	?	1%
Cc1cc2c(c(SCC#N)n1)C(=O)OC2	-2	0%	-0.2%	-2%
